High-throughput results from PubChem.
Tgondii IFNg: blocks Toxoplasma gondii growth in the presence of IFN-gamma. Toxoplasma gondii growth in IFN-gamma-treated host cells; stronger effect = lower value; reference of the scale not given here. activity change, negative = inhibition, %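 (about 20 µM by stock and volumes)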. 3.8% of 69,000 active. AID 1259416;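 active means below -70%; inconclusive means fit judged invalid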;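 further: host cells are HeLa cells infected with Toxoplasma gondii; parasite growth read as luciferase light; one replicate is shown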
Starred values were filed as active, the others as inactive; ? = inconclusive; & = joins results of further samples. A portion of the library; count on the stated rates, not on these rows.

canonical_smiles | Tgondii IFNg
CCc1ccc2c(c1)C1(SC(NC(C)=O)=NN1C(C)=O)C(=O)N2CC(=O)OC (stereo not given) | -9
COc1cccc(CNC(=O)C[C@H]2CC[C@H]3[C@H](COc4ccc(NS(=O)(=O)c5ccccc5F)cc4C(=O)N3C)O2)c1 | 9
CCC(=O)N(CC(C)C)C[C@@H]1[C@@H](c2ccccc2)[C@H](CO)N1C(=O)C1CCC1 | -21
CO[C@@H]1CN(C)C(=O)c2ccc(NS(=O)(=O)c3ccc(C)cc3)cc2OC[C@@H](C)N(C)C[C@@H]1C | 93
Cc1ccc(-n2cc(CN(C)Cc3cn(C)nc3C)c(-c3ccc(F)cc3)n2)cc1 | -8
O=C(CCC(=O)N1CCCC(c2ccccc2)CC1)NC1CCCC1 (stereo not given) | 22
N#Cc1nn(-c2ccccc2)c(=O)n(Cc2ccc(Cl)cc2)c1=O | 78
C/C=C/c1ccc([C@H]2[C@H](CO)N(C(C)=O)[C@H]2CN(CC)C(=O)CN(C)C)cc1 | -14
COc1cccc(-c2noc(-c3c(O)c4ccccc4n(C)c3=O)n2)c1 | -12
CC1(C)CCC(C)(C)c2cc(C(=O)Nc3ccc(C(=O)O)cc3)ccc21 | 13
C[C@H]1CNC(=O)[C@@H](Cc2ccc(C(F)(F)F)cc2)CCn2nncc2COC1 | -36
CC(C)N1CCCCC(C2CCN(c3ncccn3)CC2)C1=O (stereo not given) | -1
Cn1ncc2c(N3CCN4C(=O)CNC(=O)C4C3)nc(C(C)(C)C)nc21 (stereo not given) | -2
O=C(NC12CC3CC(CC(C3)C1)C2)N1CCC2(CC1)Nc1ccccc1-n1cccc12 | 157
O=C(c1cccs1)n1nc(-c2cccnc2)nc1NCc1ccccc1 | ?
Cc1ccc2[nH]cc(CCNC(=O)c3cc(-c4cccnc4)nc4ccccc34)c2c1 | 9
Cc1cc(C)nc(Nc2cccc(C3CCCN3C(=O)c3ccccc3)n2)n1 (stereo not given) | 13
CCOC(=O)N1CCC(n2cc(-c3c(C)nn(C)c3Cl)nn2)CC1 | 6
CCc1ccc(CN(C)Cc2snnc2C)nc1 | 14
O=C(C1CCCN(Cc2cc3n(n2)CCCNC3)C1)N1CCOCC1 (stereo not given) | -1
COc1ccc2c3c(n(C)c2c1)[C@H](CO)N(Cc1ccccc1F)CC31CCN(C(=O)C2CCOCC2)CC1 | 18
CC1CCC(CNC(=O)CCc2csc(N)n2)(N2CCCCC2)CC1 (stereo not given) | 1
OC(CSc1nncn1-c1ccccc1)C(F)(F)F (stereo not given) | 49
CO[C@H]1CO[C@@]2(CCCN(S(=O)(=O)N(C)C)C2)C1 | 7
Cc1cccn2c(CNC(=O)c3cc(-c4ccccc4O)n[nH]3)cnc12 | 4
FC(F)(F)c1cccc(-n2nnnc2CSc2ccccn2)c1 | -10
CCN1c2ccc(F)cc2C(=O)NC12CCN(C(=O)Cc1ccccc1C)CC2 | 68
COCCN1CCn2cc(CNC(=O)c3cnn(C)c3)nc2C1 | -24
COC(=O)[C@H]1CCc2ccccc2N1C(=O)C(C)C | -20
COc1ccc(CN2CCC(c3cc4c(ncn4C)c(-c4ccc(OC)cc4)n3)CC2)cc1 | -14
CC(C)Nc1nc2c(c(N(C)C)n1)CCN(C(=O)c1ccn[nH]1)CC2 | -4
CCCCCCCC/C=C/CCCCCCCC(=O)NCCO | -1
CN1c2ccc(Br)cc2[C@@H]2[C@@H](CCN2C(=O)C2CCC2)[C@@H]1CO | -9
CCOc1ccc2nc(SCCN3CCOCC3)[nH]c2c1 | 33
O=c1ccc(=O)n(CN2CCN(Cc3ccccc3)CC2)[nH]1 | 9
Cc1ccc(CN2CCc3[nH]nc(C(=O)N(C)C)c3C2)o1 | 101
OC1(c2cccnc2)CCN(c2ncc(-c3cccs3)c(-c3nccs3)n2)CC1 | 8
COc1ccc(S(=O)(=O)N2CCN(C(=O)c3cn4cccc(C)c4n3)CC2)cc1 | 4
COc1cc(-c2nc(Nc3nc(C)cc(C)n3)n[nH]2)cc(OC)c1OC | -15
O=C(NC1CC1)c1cc2n(n1)CCN(c1nccc(C(F)(F)F)n1)C2 | -63
CC(C)NC(=O)Nc1cccc2c1O[C@H](CN(C)C(=O)Nc1ccccc1)[C@H](C)CN([C@H](C)CO)C2=O | -8
O=S(=O)(c1ccc(F)cc1)N1CCC2(CC1)Nc1ccccc1-n1cccc12 | 26
Cc1cccc(-c2nc(NC(=O)N3CCC(Oc4cccnc4)CC3)n[nH]2)c1 | 2
Cc1cc(C)n(CCc2c(-c3ccccc3)ncn2C(C)Cn2cccn2)n1 (stereo not given) | -37
CCN1CCN(c2cc3c(nn2)Oc2ccccc2N3C)CC1 | -28
c1ccc(-c2csc3ncn4nnnc4c23)cc1 | 8
CCS(=O)(=O)N1CC2(CN(C(=O)Nc3c(C)noc3C)[C@H](CO)c3[nH]c4cc(OC)ccc4c32)C1 | 92
Cc1oc(-c2ccc(OC(C)C)cc2)nc1CSc1nc2ncccc2o1 | -96*
O=C(Nc1ccc2nsnc2c1)c1ccccc1Cl | 396
O=C(NCc1cccs1)c1cccc2[nH]cc(CN3CCCC3)c12 | -37

The list continues.
canonical_smiles | Tgondii IFNg
CCCN(CCC)C(=O)c1cc2cccnc2n(Cc2ccccc2)c1=O | -8
COc1ccccc1CNC(=O)c1cncc(OC(C)C)c1 | -27
COC1CC2(CCN(S(=O)(=O)c3cccs3)CC2)c2ccccc21 (stereo not given) | -5
COc1ccc2c3c([nH]c2c1)[C@H](CO)N(C(=O)C1CC1)CC31CCN(C(=O)c2ccncc2)CC1 | -39
Cc1ccc(-c2coc(-c3ccc(NC(=O)Nc4ccccc4Br)cc3)n2)cc1 | 29
CC(C)(C)Nc1nc(N2CCOCC2)nc(N2CCOCC2)n1 | -22
N#C[C@@H]1[C@H](c2ccc(C#Cc3cccc(F)c3)cc2)[C@H](CO)N1C(=O)C1CCOCC1 | -40
Cn1ccnc1CN1CCCC2(COCCN(c3ccccn3)C2)C1 (stereo not given) | 22
CNc1ncnc2c1ncn2[C@@H]1O[C@H](CO)[C@@H](O)[C@H]1O | 0
CCOC(=O)CNC(=O)CC(=O)OCC | 12
COCCN(C)C(=O)c1ccc2nnc3ncn(-c4ccccc4)c3c2c1 | 88
Cc1nc(-c2ccc(F)cc2)sc1-c1ccc(SCc2ccccn2)nn1 | 13
CCC(=O)N1CC(=O)N2[C@@H](CO)[C@H](c3ccc(C#CCC(C)C)cc3)[C@@H]2C1 | -36
CCC(=O)N1CC[C@H]2[C@@H]1c1cc(C#Cc3ccccc3OC)ccc1N(C)[C@H]2CO | -11
O=C(C1CCCCC1)N1C[C@@H]2N[C@H](C1)C2c1ccc(-c2ccccc2F)cc1 (stereo not given in full) | -41&-67
O=C(CCn1nnc2ccccc21)N1CCCC1c1ccccn1 (stereo not given) | 45
CC(=O)N[C@H]1C[C@@H](c2cccc(OCc3ccccn3)c2)O[C@@H](C(C)C)C1 | 76
C=CCSC(C)C(=O)Nc1ccc(NC(=O)C(C)(C)C)c(Cl)c1 (stereo not given) | 9
CCNc1ccnc(N2CCN(Cc3cnc(N4CCCC4)nc3)CC2)n1 | -5
Cc1ccc2c(C)nc(Nc3ncc4c(n3)CCCC4=O)nc2c1 | -25
COCC1CN(Cc2c(C)noc2C)Cc2ncn(C)c21 (stereo not given) | 1
O=S(=O)(c1cc(F)ccc1F)N1CCC2(CC1)Nc1ccc(Cl)cc1-n1cccc12 | -36
Cc1cccc(-n2ncc3c(NC4CCCCC4)ncnc32)c1 | 341
COc1cccc(N2CC3(CCN(C(=O)C4(C#N)CC4)C3)CC2=O)c1 (stereo not given) | -3
O=C(NCC1CC1)c1c(O)c2cccnc2n(-c2cccc(F)c2)c1=O | 96
Oc1ccc(-c2cnn3cccnc23)cc1 | -6
C[C@@H]1CCCCO[C@@H](CN(C)Cc2ccncc2)[C@@H](C)CN([C@H](C)CO)C(=O)c2cc(NS(=O)(=O)c3ccc(Cl)cc3)ccc2O1 | 132
CNC(=O)C[C@H]1CC[C@H]2[C@H](COc3ccc(NC(=O)c4ccccc4F)cc3C(=O)N2C)O1 | 17
O=C(/C=C/c1ccc2c(c1)OCO2)N1CCCCC1 | 95
COCCCN=C1NC(=O)C(CC(=O)Nc2ccc(Cl)cc2)S1 (stereo not given) | 36
O=C(CCc1c[nH]c2ccccc12)NC[C@@H]1CCNC[C@H]1O | 6
Cc1c(CN2CCC3(CC2)C(=O)N(Cc2ccccn2)C(=O)N3Cc2ccccc2)cnn1C | 18
CCN(CC)Cc1cn2c(n1)CN(C(=O)Cc1cccs1)CC2 | 5
Cc1ccc(S(=O)(=O)Nc2cccc3c2O[C@@H](CN(C)C(=O)Nc2ccc(C(F)(F)F)cc2)[C@H](C)CN([C@H](C)CO)C3=O)cc1 | -20
O=C(c1ccco1)N1CCCC2(CC(n3ccnc3)CO2)C1 (stereo not given) | -15
COc1ccc(S(=O)(=O)Nc2ccc3c(c2)C(=O)N([C@H](C)CO)C[C@H](C)[C@H](CN(C)S(=O)(=O)c2ccc(Cl)cc2)OCCCC[C@H](C)O3)cc1 | -82*
CC1(CCc2c[nH]c3ccccc23)NCCc2[nH]cnc21 (stereo not given) | 1
Cc1cc(-c2c(-c3ccccc3)ncn2CCN2CCCOC2=O)n[nH]1 | -49
Cc1ncc(CSCC(=O)Nc2cc(C(F)(F)F)ccc2Cl)c(CO)c1O | 15
CN1C(=O)c2cc(NC(=O)c3cccc(F)c3)ccc2OC[C@H]2O[C@H](CC(=O)NCC3CCCCC3)CC[C@@H]21 | -38&8
CN1C[C@H]2[C@@H](c3ccccc31)[C@H](CO)N2S(=O)(=O)c1ccccc1 | -26
Cc1ncc(S(=O)(=O)N2CCN(C(=O)c3cccnc3)CC2)c(-c2ccccn2)n1 | 74
O=C(NCc1ccc2c(c1)OCO2)c1cncc(NS(=O)(=O)c2ccc3c(c2)OCCO3)c1 | 45
CCOc1ccc(-c2nc(CN3CCN(C(=O)NC4CCCC4)CC3)c(C)o2)cc1 | -3
C[C@H](CO)N1C[C@H](C)[C@H](CN(C)Cc2ccc3c(c2)OCCN3C)OCc2ccccc2-c2ccccc2C1=O | -11
Cc1noc(C)c1S(=O)(=O)Nc1ccc2c(c1)CC(=O)N([C@H](C)CO)C[C@H](C)[C@@H](CN(C)Cc1ccc(Oc3ccccc3)cc1)O2 | -65
COc1ccccc1-c1ccc2c(c1)[C@@H]1[C@@H](CCN1C(=O)C1CCC1)[C@H](CO)N2 | -72*
FC(F)(F)c1nc2ccc(Oc3ccc4nc(C(F)(F)F)[nH]c4c3)cc2[nH]1 | 16
Cn1ccnc1CN1C[C@H]2CN(C(=O)c3cscn3)C[C@@H]2C1 | 15
CCCC[P+](CCCC)(CCCC)Cc1ccc(NC(=O)[C@H](Cc2ccc3ccccc3c2)NC(=NC2CCCCC2)NC2CCCCC2)cc1 | -65

Reformatted: results already given
COc1ccccc1-c1ccc2c(c1)[C@@H]1[C@@H](CCN1C(=O)C1CCC1)[C@H](CO)N2
  Tgondii IFNg = -72*

FC(F)(F)c1nc2ccc(Oc3ccc4nc(C(F)(F)F)[nH]c4c3)cc2[nH]1
  Tgondii IFNg = 16

Cn1ccnc1CN1C[C@H]2CN(C(=O)c3cscn3)C[C@@H]2C1
  Tgondii IFNg = 15

CCCC[P+](CCCC)(CCCC)Cc1ccc(NC(=O)[C@H](Cc2ccc3ccccc3c2)NC(=NC2CCCCC2)NC2CCCCC2)cc1
  Tgondii IFNg = -65

Some values from the results shown:
Result for CN1C(=O)c2cc(NC(=O)c3cccc(F)c3)ccc2OC[C@H]2O[C@H](CC(=O)NCC3CCCCC3)CC[C@@H]21 in Tgondii IFNg: -38&8
Result for O=C(c1ccco1)N1CCCC2(CC(n3ccnc3)CO2)C1 (stereo not given) in Tgondii IFNg: -15
Result for Cc1cc(-c2c(-c3ccccc3)ncn2CCN2CCCOC2=O)n[nH]1 in Tgondii IFNg: -49
Result for C[C@@H]1CCCCO[C@@H](CN(C)Cc2ccncc2)[C@@H](C)CN([C@H](C)CO)C(=O)c2cc(NS(=O)(=O)c3ccc(Cl)cc3)ccc2O1 in Tgondii IFNg: 132

Following part:
canonical_smiles | Tgondii IFNg
CCc1nc(OCC(=O)N(CC)c2ccccc2)c2ccccc2n1 | -25
COc1ccccc1-c1nc(CSc2nc3c(=O)[nH]cnc3n2-c2ccccc2)c(C)o1 | -21
CC(=O)Nc1ccccc1NC(=O)CN(C)CCC1CCCCO1 (stereo not given) | -2
CC(C)CC(C)c1cc(N)nc2nc3ccccc3n12 (stereo not given) | -38
Cc1cc(C)n2c(SCC(=O)N3CCN(C(=O)c4ccco4)CC3)nnc2n1 | -8
Cc1ccc(Sc2c(Sc3ccc(C)cc3)c(=O)c2=O)cc1 | -88*
N#C[C@H]1[C@H](c2ccccc2-c2cccc(F)c2)[C@@H](CO)N1C(=O)NC1CCCCC1 | 3
CCCCN1CCCC1CNC(=O)c1cc(C#N)c2ccccc2c1OC (stereo not given) | 2
CCc1cc(-c2ccccc2CO)ccc1NC(C)=O | 2
C=CCN(C(=O)c1ccc2snnc2c1)c1ccccc1 | -14
O=C(c1ccsc1)N1CCO[C@@H]2[C@H]1CC[C@H]2OCc1ccccn1 | 78
CC(=O)NCC(=O)N1Cc2ccnn2CC(c2nc(C)no2)C1 (stereo not given) | -2
C[C@H](NC(=O)C[C@@H]1CC[C@@H]2[C@H](COc3ccc(NC(=O)C4CCOCC4)cc3C(=O)N2C)O1)c1ccccc1 | -6
CCOC(=O)c1nc(N2CCN(c3ccc(C)cc3C)CC2)c2ccccc2n1 | -30
C[C@@H]1CN([C@@H](C)CO)C(=O)c2cccc(NC(=O)c3nc4ccccc4s3)c2O[C@H]1CN(C)C(=O)Nc1ccc2c(c1)OCO2 | 44
Cc1sc2c(C3CCCN(C(=O)CN(C)C)C3)nc(C)n2c1C (stereo not given) | -42
O=C1[C@H](Cc2ccc(C(F)(F)F)cc2)CCn2nncc2COC[C@@H]2CCCCN12 | -31
